# KCNQ2 enhance: potentiators of rat KCNQ2 potassium channel; O88943; CHO-K1 KCNQ2, FluxOR thallium flux fluorescence; active compounds read high; B-score at 10 µM; hit rate 0.54% among 310,000;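 active means fluorescence ratio B-score at least 3 SD of library B-scores, with initial fluorescence B-score within 3 SD, cut at about 5.3 in these data; same plate scores as AID 2156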;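 further: B-score of peak minus minimum over baseline fluorescence ratio after K+ and Tl+ stimulus; positive B-score means potentiation of KCNQ2 with more thallium influx and brighter signal; only the inactives scoring about 0 or higher are listed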
# Target sequence (O88943 whole entry, looked up): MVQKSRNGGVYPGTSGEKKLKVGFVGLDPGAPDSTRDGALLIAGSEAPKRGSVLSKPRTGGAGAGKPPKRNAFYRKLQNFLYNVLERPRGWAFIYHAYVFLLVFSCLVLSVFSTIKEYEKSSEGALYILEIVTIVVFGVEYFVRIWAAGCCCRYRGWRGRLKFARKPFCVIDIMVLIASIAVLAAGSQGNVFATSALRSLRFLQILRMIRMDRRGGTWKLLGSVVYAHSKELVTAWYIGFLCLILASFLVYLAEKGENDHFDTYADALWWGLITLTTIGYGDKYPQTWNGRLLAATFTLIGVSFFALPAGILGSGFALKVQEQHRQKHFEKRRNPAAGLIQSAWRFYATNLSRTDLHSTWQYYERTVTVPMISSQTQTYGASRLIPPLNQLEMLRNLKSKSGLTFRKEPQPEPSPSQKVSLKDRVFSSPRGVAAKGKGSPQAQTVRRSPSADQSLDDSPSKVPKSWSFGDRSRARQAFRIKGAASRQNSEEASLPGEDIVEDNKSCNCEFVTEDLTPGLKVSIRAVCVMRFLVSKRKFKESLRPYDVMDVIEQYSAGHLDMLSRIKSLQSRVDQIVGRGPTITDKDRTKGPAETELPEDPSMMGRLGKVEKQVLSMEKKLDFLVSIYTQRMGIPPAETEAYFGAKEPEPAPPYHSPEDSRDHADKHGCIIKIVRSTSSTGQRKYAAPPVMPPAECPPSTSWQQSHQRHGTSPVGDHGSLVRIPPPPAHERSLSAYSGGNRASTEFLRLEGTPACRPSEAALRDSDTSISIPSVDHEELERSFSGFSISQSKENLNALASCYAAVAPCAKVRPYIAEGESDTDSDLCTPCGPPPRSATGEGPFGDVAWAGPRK
# KCNQ2 enhance baseline: second read-out of KCNQ2 enhance, no call of its own (marks repeat the call); B-score; compound at 10 µM; measured here: initial fluorescence intensity artifact check;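 brightness before thallium and not channel activity; 0 = typical well and far values either way flag optical interference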
# * marks the source's active call; other numbers are inactive results.
KCNQ2 enhance	KCNQ2 enhance baseline	canonical_smiles
0.19	0.72	O=C(C1CCN(S(=O)(=O)c2ccccc2)CC1)N1CCc2ccccc21
1.2	0.09	CCn1c(COc2ccc(=O)n(-c3ccccc3)n2)nnc1SCc1ccc(OC)cc1
0.35	-1.1	Cc1ccc(C(=O)NNC(=O)CSc2nnc3c(n2)[nH]c2ccc(C)cc23)cc1
0.81	-0.04	COc1ccc(C(=O)OCCN2CCN(C3=NS(=O)(=O)c4ccccc43)CC2)cc1OC
0.11	-1.7	Cc1ccc(Nc2nc(CSc3nnc(-c4cccnc4)n3-c3ccccc3C)cs2)cc1
0.28	0	Nc1cc(=O)[nH]c(SCc2nnc(-c3ccccc3)o2)n1
0.91	-0.13	Cc1ccc(C(C(=O)NCc2ccco2)N(C(=O)Cn2nnc3ccccc32)c2ccccc2)o1 (centres undefined)
0.3	0.6	O=C(c1c[nH]c2ccccc12)N1CCN(Cc2ccccc2)CC1
0.06	-0.8	CCOC(=O)Cc1csc(NC(=O)c2cc(C)on2)n1
0.26	-1.1	CN(Cc1cccc(F)c1)C(=O)c1ccc(S(=O)(=O)C(F)F)cc1
2.1	-0.47	CN(C(=O)CSc1ncc(C(F)(F)F)cc1Cl)c1c(N)n(Cc2ccccc2)c(=O)[nH]c1=O
1.9	1.2	CC(C)(C)OC(=O)NC(Cc1ccccc1)C(=O)N1CCCC1C(=O)O (centres undefined)
1.1	-1.1	CC(C)CCn1cnc2c1c(=O)n(CC(=O)NC(N)=O)c(=O)n2Cc1ccccc1
0.98	-1.1	CC(=O)c1c(C)[nH]c(C(=O)OC2CCCCC2=O)c1C (centres undefined)
0.95	0.86	CS(=O)(=O)N(CC(=O)N1CCN(c2ccc(F)cc2)CC1)c1cccc(Cl)c1
0.69	0.81	CCOc1ccc2nc(NC(=O)c3ccc(OC)c(S(=O)(=O)N4CCOCC4)c3)sc2c1
3	0.03	Cc1ccc(CSc2nnc(SCC(=O)N/N=C/c3ccccc3OCC(=O)O)s2)cc1
1.2	2.6	Fc1ccc(NC(=S)N2CCOCC2)cc1Cl
3.9	0.68	CCCCCOC(=O)c1ccc(NC(=O)c2cccc(NC(=O)c3ccccc3C(=O)O)c2)cc1
0.49	0.01	CC(=O)Nc1ccc(S(=O)(=O)N2CC(=O)NC(=O)C2)cc1
1.5	2	COc1ccc(Cc2nnc(SCC(=O)Nc3ccc(N4CCOCC4)cc3)o2)cc1
0.67	-0.01	Cc1c(NC(=O)/C(C#N)=C/c2c(Oc3ccccc3)nc3ccccn3c2=O)c(=O)n(-c2ccccc2)n1C
2.1	-0.77	CC1(C)CC(=O)C2=C(C1)NC(Nc1nc3ccccc3o1)=NC21CCCCC1
1.9	-0.9	COCCCNS(=O)(=O)c1ccccc1
0.02	0.15	Cc1cccc(C(=O)NCC(=O)OCC(=O)N2CCCCC2)c1
1.5	1.2	Cc1ccc(NC(=O)CSc2ccc(-c3cccnc3)nn2)cc1Cl
2.4	-0.77	COc1ccc(C(=O)Nc2cc3c4c(c2)C(C)C(=O)N4CCC3)c(OC)c1 (centres undefined)
0.85	-0.31	CC(=O)c1ccc(S(=O)(=O)NC2CC(=O)N(c3cccc(F)c3)C2)cc1 (centres undefined)
0.48	-0.06	Cc1ccc(Cn2c(CN3CCOCC3)nc3c2c(=O)n(C)c(=O)n3C)cc1
0.23	0.89	COc1ccc(CCNC(=O)COc2ncnc3ccccc23)cc1OC

# Profiles, looked up by structure. Screens in order: KCNQ2 enhance	KCNQ2 enhance baseline
# `Cc1ccc(C(=O)NNC(=O)CSc2nnc3c(n2)[nH]c2ccc(C)cc23)cc1` as listed: 0.35	-1.1
# `CC(=O)c1ccc(S(=O)(=O)NC2CC(=O)N(c3cccc(F)c3)C2)cc1` (centres undefined) as listed: 0.85	-0.31
# `CC1(C)CC(=O)C2=C(C1)NC(Nc1nc3ccccc3o1)=NC21CCCCC1` as listed: 2.1	-0.77

# Additional results
KCNQ2 enhance	KCNQ2 enhance baseline	canonical_smiles
0.07	-1.7	CCOC(=O)C(CCCCCCC(NC(C)=O)(C(=O)OCC)C(=O)OCC)(NC(C)=O)C(=O)OCC
2.2	1	O=C(CN1C(=O)S/C(=C\c2ccccn2)C1=O)Nc1ccccc1
0.54	2.2	CCOC(=O)C1=C(O)/C(=C\c2ccc(CNS(=O)(=O)c3ccc(Br)cc3)o2)N=C1C
0.36	0.08	COc1ccc(CNC(=S)NCc2ccc(OC)cc2)cc1
12*	2.1*	Oc1ccc(Cl)cc1C1=NNC(c2cccs2)C1 (centres undefined)
1.3	-1.2	Cc1cc2c(cc1C)N(CC(=O)N1CCCC1)C(=O)CC(c1ccccc1)=N2
2.5	-0.66	O=C(CN1CCC(O)(c2ccc(F)cc2)CC1)NCc1ccc(F)cc1
0.43	0.43	COc1ccc(NC(=O)c2n[nH]c(=O)c3ccccc23)cc1S(=O)(=O)N1CCCCC1
0.28	0.64	Cc1c(NC(=O)C2CCCNC2=O)c(=O)n(-c2ccccc2)n1C (centres undefined)
0.55	-1.2	COC1(OC)C=CC(=O)C=C1NC(=O)c1ccccc1OC(C)=O
0.04	-0.03	Cc1cc(C)n(CCc2nc3c4ccccc4n(CC#N)c(=O)n3n2)n1
0.35	-1.3	Cc1cccc(C2C3=C(CCCC3=O)N=C3c4ccccc4C(=O)C32)c1 (centres undefined)
0.55	-1.1	CC1CCc2sc(C(=O)N/N=C/c3ccc([N+](=O)[O-])cc3)cc2C1 (centres undefined)
2.8	-1.3	Cc1ccc(C(=O)O)cc1NC(=S)NC(=O)c1ccc(-c2ccc(Cl)cc2)o1
0.85	0.34	COc1cc(NS(=O)(=O)c2ccc(Cl)cc2)c(C(=O)O)cc1OC
0.37	1.9	O=C1C2CC=C(Cl)CC2C(=O)N1CN(Cc1ccco1)CN1C(=O)C2CC=C(Cl)CC2C1=O (centres undefined)
0.69	0.45	CC(C)CC(NC(=O)OC(C)(C)C)C(=O)NC(C(=O)N1CCCC1C(N)=O)C(C)C (centres undefined)
0.24	0.69	Cc1cc(SCc2cc(=O)[nH]c3ccccc23)nc2ccccc12
0.55	-0.14	CNC(=O)[C@@H]1C[C@H]1[C@@H](NC(=O)CNC(=O)OCc1ccccc1)c1ccccc1
0.91	0.39	N=C1C(c2nc3ccccc3s2)=C(O)CN1NC(=O)c1c[nH]c2ccccc12
1.2	-0.1	O=C(CCCC(=O)OCC(F)(F)C(F)F)Nc1nccs1
0.74	-0.42	COc1ccc(-c2c(C#N)c(N)nc3c2CCCC3)cc1OC
0.03	-0.66	CCCN(CC(=O)Nc1c(C)cccc1CC)C(=O)SCC
0.61	-0.64	O=C(c1cccnc1)N(Cc1ccccc1)C1(C(=O)Nc2ccccc2)CCCCC1
7.4*	0.38*	S=c1[nH]nc(-c2cccs2)n1/N=C/c1c(Cl)cccc1Cl
0.65	-2.1	O=C(Nc1ccc(N2CCN(C(=O)c3cccs3)CC2)cc1)c1ccccc1Cl
0.02	-0.62	N#Cc1cccnc1Nc1ccc(Cl)cc1
0.11	0.04	CCO[C@H]1OC(C(=O)NCc2nc3ccccc3[nH]2)=C[C@@H](C2CC2)[C@@H]1CCCO
0.43	0.2	Cc1ccc(CNC(=O)CCS(=O)(=O)c2ccc(Br)cc2)cc1
0.32	0.39	Cc1ccc(-c2cc(C(=O)Nc3cc(C)ccc3O)no2)cc1
0.27	1.1	COc1ccc(C(=O)CSc2cc(C)nc(SCC(=O)c3ccc(C)cc3)n2)cc1
0.09	0.14	CCN1C(=O)c2cccc3c(Cl)ccc(c23)C1=O
0.91	-0.38	Cn1cc(CCNC(=O)c2ccc3nc(Cc4ccccc4F)oc3c2)cn1
0.76	-0.93	CCCCC(=O)N1CCN(c2nc(-c3ccc(F)cc3)cs2)CC1
1.5	0.26	CCc1ccc(-c2ccc3nnc(SC)n3n2)cc1
1.5	-0.02	CCOc1cccc(NC(=O)C2CC(=O)NC(=Nc3ccccc3)S2)c1 (centres undefined)
2	0.98	O=C(c1ccncc1)N1N=C(c2ccc(Br)cc2)CC1c1ccccc1O (centres undefined)
0.22	-1.9	COC(=O)C1=C(N)N(c2ccccc2F)C2=C(C(=O)CC(C)(C)C2)C1c1ccc(OC)c(OC)c1 (centres undefined)
0.02	1.5	N#Cc1ccccc1CN1C(=O)S/C(=C/c2cccn2-c2ccc(C(=O)O)cc2)C1=O
2.5	-1.3	CN1CCN(C(=O)c2cc([N+](=O)[O-])ccc2Cl)CC1
2.8	-3.5	Cn1c(-c2ccccc2)c(CCO)c2ccccc21
2.4	-1.6	CNC(=O)COC(=O)c1cccc(S(=O)(=O)N2CCN(c3ccc(F)cc3)CC2)c1
1.7	-1.5	N#CCCN(Cc1cccnc1)C(=O)Nc1ccccc1
1.1	-1.4	COc1ccc(C2c3cc(OC)c(OC)cc3CCN2S(C)(=O)=O)cc1OC (centres undefined)
0.02	-0.71	N#Cc1c(NC(=O)C2CCCO2)sc2c1CCCCCC2 (centres undefined)
0.69	-0.51	COc1cccc(CNCCNC(=O)c2nonc2N)c1
1.4	1.4	COc1ccc(C(=O)C2CCCN(C(=O)C3CCOCC3)C2)c(C)c1 (centres undefined)
1.1	-1.8	CCOC(=O)c1c2c([nH]c(=S)c1C#N)CCCC2
0.94	-0.24	CC1(C)Cc2nc3oc4c(=S)nc[nH]c4c3cc2CO1
5.5*	0.57*	O=C(NC(=S)N1CCN(c2ccc(Cl)cc2[N+](=O)[O-])CC1)c1cccs1
1.5	-0.71	Cc1cccc(NC(=O)Nc2cccc(C)n2)n1
0.43	-0.57	Cc1ccc(C(=O)C2=C(O)C(=O)N(Cc3ccco3)C2c2ccc(N(C)C)cc2)o1 (centres undefined)
0.15	-1.1	Cc1cccc(/C=N\Nc2nnc(-c3ccccc3)c(=O)[nH]2)c1
0.8	0.02	O=C(CCCOc1ccccc1)N1CCN(S(=O)(=O)c2cccs2)CC1
0.02	0	O=C(COC(=O)c1ccc2c(c1)OCCO2)Nc1cc(Cl)ccc1Cl
1.3	-1	Cc1ccc(F)cc1NC(=O)Cc1nn(C)c(=O)c2ccccc12
0.63	0.35	CCOC(=O)Cc1cc(=O)n2[nH]c(-c3ccccc3)cc2n1
0.36	0.48	C=CCNc1nc(Nc2ccc(OC)cc2)nc(OC)n1
0.9	0.07	CCOC(=O)c1ccc(-n2c(CN(CC)CC)nc3ccc([N+](=O)[O-])cc3c2=O)cc1
0.68	-0.11	COc1ccc(NC(=O)c2ccco2)c(OC)c1

# Continued (3 carried over from the part before).
KCNQ2 enhance	KCNQ2 enhance baseline	canonical_smiles
0.36	0.48	C=CCNc1nc(Nc2ccc(OC)cc2)nc(OC)n1
0.9	0.07	CCOC(=O)c1ccc(-n2c(CN(CC)CC)nc3ccc([N+](=O)[O-])cc3c2=O)cc1
0.68	-0.11	COc1ccc(NC(=O)c2ccco2)c(OC)c1
0.41	-2.6	COc1ccccc1CCc1nnc(CCC(=O)NC(C)Cc2ccsc2)o1 (centres undefined)
0.12	0.26	CSc1nnc(-c2ccccc2N=Cc2c(C)[nH]n(-c3ccccc3)c2=O)c(=O)[nH]1
0.19	-0.98	Cc1ccc(-c2cc(C(=O)N/N=C/c3ccccc3)n[nH]2)o1
0.41	0.8	COc1ccc(NC(=O)CC2Oc3ccccc3NC2=O)cc1 (centres undefined)
0.63	-2.4	CC1CCN(CCNC(=O)C2CCCN(S(=O)(=O)c3cccc4nonc34)C2)CC1 (centres undefined)
0.26	0.01	CC(C)N(O)C(=O)NC(C)(C)C
0.28	-0.02	CCN(CC)CCCNc1nc(N)c([N+](=O)[O-])c(N2CCCCCC2)n1
1.1	-0.62	Nc1ccc(NC2C[C@@H](C(=O)O)NC2=O)cc1 (some centres undefined)
6.1*	0.15*	CC(=O)NC1=C(NC2CCS(=O)(=O)C2)C(=O)c2ccccc2C1=O (centres undefined)
1.6	0.02	Cc1onc(-c2ccccc2)c1C(=O)Nc1ncc([N+](=O)[O-])s1
0.26	0.54	CN1CCN(C(c2ccc(F)cc2)c2nnnn2Cc2cccs2)CC1 (centres undefined)
0.55	0.59	COC(=O)Cc1ccc(NC(=O)c2ccc(NC(=O)c3ccco3)cc2)cc1
0.06	-1.2	O=c1oc(-c2ccccc2NS(=O)(=O)c2ccc3ccccc3c2)nc2ccccc12
0.51	1.1	CCN1C(=O)c2ccccc2Sc2ccc(C(=O)NCCC(C)C)cc21
1.1	-0.59	O=C(CCS(=O)(=O)c1ccccc1)N1CCCc2ccccc21
1.2	-0.14	Oc1[nH]c2ccccc2c1/C=N/c1nccs1
0.11	-0.02	COc1ccc(Cl)c2sc(N3CCN(C(C)=O)CC3)nc12
2.2	0.65	CCOc1ccc(NC(=O)CSc2ccc(-c3ccccn3)nn2)cc1
0.46	0	CSc1cccc(NC(=O)CN(C)S(=O)(=O)c2ccc(C)cc2)c1
0.22	-0.26	CCN1CCN(C(=O)c2cc3c(=O)oc4ccc(C)cc4c3s2)CC1
2.5	-2.6	COc1ccc(CCn2c(-c3cc([N+](=O)[O-])cc([N+](=O)[O-])c3)nc3nc4ccccc4nc32)cc1OC
0.37	-0.02	O=C(NC(=O)c1ccccc1)Nc1ccccc1O
0.29	-1.1	Cc1ccc(NC(=O)CCc2c[nH]c3ccccc23)nc1
0.08	0.26	O=S(=O)(O)c1cc(O)c2c(O)c(N=Nc3cc(Cl)ccc3O)c(S(=O)(=O)O)cc2c1

# Given as tab-separated lines: entries from further up
canonical_smiles	KCNQ2 enhance	KCNQ2 enhance baseline
Cc1onc(-c2ccccc2)c1C(=O)Nc1ncc([N+](=O)[O-])s1	1.6	0.02
O=S(=O)(O)c1cc(O)c2c(O)c(N=Nc3cc(Cl)ccc3O)c(S(=O)(=O)O)cc2c1	0.08	0.26
COc1ccccc1CCc1nnc(CCC(=O)NC(C)Cc2ccsc2)o1 (centres undefined)	0.41	-2.6

# These rows are one share of the data, so the mix of outcomes need not match the whole.
